Assay outcomes deposited in PubChem by National Center for Advancing Translational Sciences (NCATS).
Cruzain inh noDet – inhibitors of Trypanosoma cruzi cruzain without detergent. Potency, µM, without a hit: max response, negative = inhibition, actives largely listed as inhibitors. purified cruzain, Z-FR-AMC fluorescence, no detergent. P25779. actives 2.3% (n = 200,000);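 also: plate controls were enzyme without inhibitor for no effect and buffer without enzyme for full effect; nearly all actives have a fitted effect of over 40% in size; top concentration of the series not given in the record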
Target sequence (P25779 123-467 limits assumed): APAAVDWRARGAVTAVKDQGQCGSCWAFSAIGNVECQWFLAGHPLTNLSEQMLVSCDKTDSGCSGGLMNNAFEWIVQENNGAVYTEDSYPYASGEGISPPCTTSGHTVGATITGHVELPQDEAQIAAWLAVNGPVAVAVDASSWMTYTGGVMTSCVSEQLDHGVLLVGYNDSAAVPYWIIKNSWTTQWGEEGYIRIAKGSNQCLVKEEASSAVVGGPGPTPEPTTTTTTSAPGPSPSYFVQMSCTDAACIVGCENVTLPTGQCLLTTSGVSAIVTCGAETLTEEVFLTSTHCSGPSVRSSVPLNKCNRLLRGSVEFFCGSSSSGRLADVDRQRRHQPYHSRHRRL
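Purified cruzain at 1.5 nM, pre-incubated 15 min with compound at room temperature in 100 mM sodium acetate pH 5.5, 5 mM DTT, 0.00005% Triton X-100. Reaction started with 2 uM Z-FR-AMC; AMC fluorescence increase over 60 s gives rate.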
RE007 growth inh – less growth of the S. pombe RE007 Vpr strain; S. pombe RE007 Vpr strain, BacTiter-Glo ATP luminescence, 24 h; control for the full effect not named in the record; Potency, µM (series often up to 92.2 µM), inactives show at the top dose activity change, negative = less growth; actives 0.21% (n = 360,000); active = well fitted falling curve with a large enough effect; inconclusive = small, poorly fitted or top-dose-only effect; inactive = no such curve, though single readings can be large or run the other way;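 also: % is scaled to controls: 0 for no effect and ±100 for the full control effect; nearly all actives have a fitted effect of over 50% in size; the assay follows cell death caused by Vpr and the record does not say whether a fall means rescue or toxicity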
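Fission yeast RE007 carrying one integrated HIV-1 vpr copy, seeded at OD 0.01 in PMG+AL medium with 23 nL pinned compound. Grown 24 h at 30 degrees; viability read by BacTiter-Glo luminescence after 5 min.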
SARS PLpro yeast – SARS-CoV PLP inhibition in yeast. actives 0.19% (n = 330,000). AID 485353. Potency, µM (highest dose often 32.9 µM), without a hit: top-dose activity, positive = growth rescue. S. cerevisiae expressing SARS-CoV PLpro, growth rescue; control for the full effect not named in the record; active means well fitted rising curve with a large enough effect; inconclusive means small, poorly fitted or top-dose-only effect; inactive means no such curve, though single readings can be large or run the other way; also: 0% is about no effect; nearly all actives have a fitted effect of over 55% in size; growth read by luminescence after 48 h
Cruzain Triton – inhibitors of Trypanosoma cruzi cruzain with detergent. P25779. purified cruzain, Z-FR-AMC fluorescence, 0.01% Triton. Potency, µM, for inactives: max response, negative = inhibition, hits mostly inhibitors. actives 0.43% (n = 200,000). AID 1478;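 also: plate controls were neutral wells for no effect and buffer without enzyme for full effect; nearly all actives have a fitted effect of over 40% in size; top concentration of the series not given in the record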
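Sodium acetate buffer (100 mM, pH 5.5) containing 5 mM DTT and 0.01% Triton X-100 hosted 1.5 nM cruzain and test compound for 15 min at room temperature. Cleavage of 2 uM Z-FR-AMC was then tracked by fluorescence.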
MARV entry inh – Marburg virus entry inhibition; Marburg virus pseudotyped entry inhibition, cell reporter; control for the full effect not named in the record; about a third of the inactives were read at about 46 µM; Potency, µM (series often up to 37.8 µM), for inactives: at the highest dose activity change, negative = inhibition, hits mostly inhibitors; actives 1.8% (n = 300,000); AID 540276; active = well fitted inhibition curve with a large enough effect; inconclusive = small, poorly fitted or top-dose-only effect, or effect the other way; inactive = flat fitted curve, though single readings scatter; tested in HEK293 cells; about a fifth of its hits are not listed in these tables; also: % is scaled to controls: 0 for no effect and ±100 for the full control effect; luciferase read-out
NS1 inh – inhibitors of influenza NS1 protein function; AID 2326; S. cerevisiae slowed by influenza A NS1, growth recovery by OD600; Potency, µM (doses to about 46.1 µM), without a hit: top-dose activity, positive = more growth; actives 0.4% (n = 270,000); active means well fitted rising curve with a large enough effect; inconclusive means small, poorly fitted or top-dose-only effect; inactive means no such curve, though single readings can be large or run the other way; also: nearly all actives have a fitted effect of over 50% in size
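S. cerevisiae expressing influenza A NS1, grown in glucose, washed, then diluted 1:100 into pH 6.0 -URA galactose medium with 23 nl compound. Growth recovery read as OD600; NS1-free strain serves as control.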
2A StopGo – lowers the luciferase signal of an FMDV 2A StopGo reporter; Potency, µM (highest dose often 57.9 µM), inactives show at the highest dose signal change, negative = less light; human cells with a luciferase reporter of 2A StopGo recoding; control for the full effect not named in the record; actives 1.2% (n = 410,000); active = well fitted falling curve with a large enough effect; inconclusive = small, poorly fitted or top-dose-only effect; inactive = no such curve, though single readings can be large or run the other way; tested in HEK293T cells; also: % is scaled to controls: 0 for no effect and ±100 for the full control effect; nearly all actives have a fitted effect of over 45% in size; luciferase light after 4 h
LASV entry inh – inhibitors of Lassa virus binding or cell entry; Lassa virus pseudotype entry inhibition, cell reporter; control for the full effect not named in the record; Potency, µM (top dose mostly 37.9 µM), for the others: at the top dose activity change, negative = inhibition, most hits filed as inhibitors; actives 1.2% (n = 300,000); active means well fitted inhibition curve with a large enough effect; inconclusive means small, poorly fitted or top-dose-only effect, or effect the other way; inactive means flat fitted curve, though single readings scatter; tested in HEK293 cells; also: % is scaled to controls: 0 for no effect and ±100 for the full control effect; nearly all actives have a fitted effect of over 50% in size; luciferase read-out
Numbers without * were called inactive; ? = inconclusive; . = no result given; & = joins results of further samples; [ ] = another dose, or the depositor's remark. Unless noted, calls follow the shape of the dose curve; as a rule, active = well fitted curve in the direction sought with a large enough effect; inconclusive = small, poorly fitted or top-dose-only effect, or another doubt; inactive = no such curve, though single readings can be large; an effect the other way counts as inactive or inconclusive. Potency is read from the fitted curve at half-maximal effect. Compounds as they come (roughly 4.7% active in at least one column).

SMILES | Cruzain inh noDet | RE007 growth inh | SARS PLpro yeast | Cruzain Triton | MARV entry inh | NS1 inh | 2A StopGo | LASV entry inh
C=CCSc1nc(C)c(CC=C)c(=O)[nH]1 | -2% | -13% | 2% | -2.0% | 2%&2% | 4% | . | 1%
CCCCc1cc(=O)oc2cc(OCC(=O)NCCN3CCOCC3)c(Cl)cc12 | . | -11% | -2% | . | . | 7% | ? | .
CC(=O)N/C(=C\c1ccccc1)C(=O)NCc1ccc2c(c1)OCO2 | . | -7% | 1% | . | . | 2% | 27% | .
Cn1c2ccccc2c2c(C(=O)N3CCN(c4cccc(C(F)(F)F)c4)CC3)cn(C3CCCCC3)c(=O)c21 | ? | . | . | -5.1% | ? | . | -22% | ?
O=C(CNC(=O)c1ccc(F)cc1)N/N=C/c1cn[nH]c1-c1ccccc1 | 3% | -4% | 0% | 0.8% | ? | -4% | -9% | ?
COc1ccc(OC)c(NC(=O)c2ccc3nc(-c4ccccc4)c(-c4ccccc4)nc3c2)c1 | ? | . | -4% | -3.4% | -1% | 5% | . | .
COc1ccccc1N1CCN(C(=O)COc2ccc(Cl)cc2)CC1 | ? | 5% | -1% | 2.8% | ? | -66% | -30% | -12%
CCOC(=O)c1sc(NC(=O)c2c(OC)cccc2OC)nc1C | 18% | 7% | -2% | -2.0% | -14% | 4% | -6% | -18%
CCCCn1c(N2CCC(Cc3ccccc3)CC2)nc2c1c(=O)[nH]c(=O)n2C | ? | 19% | -24% | -3.5% | ? | -79% | 28µM* | ?
Cc1ccccc1CN1CCN(CC(=O)NCCCN2CCN(c3ccc(F)cc3)CC2)C1=O | -5% | 10% | 5% | 3.2% | ? | 2% | -20% | -22%
CC(C)C(O)(C#CCN1CCCCC1)c1ccccc1 (centres undefined) | 1% | 7% | 3% | -0.2% | 18% | 3% | . | 1%
O=C(C(=C1NCCN1)n1cncn1)c1ccccc1 | 0% | 15% | 7% | -0.9% | ? | 25% | -9% | 6%
O=c1cc2c(nn1Cc1ccc(Cl)cc1Cl)-c1ccccc1CC2 | -2% | 17% | -2% | -1.8% | -1% | -2% | -10% | ?
O=C(NCc1ccc(F)cc1)C1(S(=O)(=O)c2ccc(Cl)cc2)CC1 | . | 14% | 0% | . | 7%[46.1 µM] | 10% | 30%[activator] | 9%[46.1 µM]
c1ccc(NNC2=NCCS2)cc1 | . | ? | -3% | . | ? | -31% | 20% | 22%
CC1CCN(C(=O)C2CCN(C(=O)c3ccc(C(C)(C)C)cc3)CC2)CC1 | . | 0% | 0% | . | -21%[46.1 µM] | 3% | -20% | -7%
COc1ccc(CCN2C(=O)CC(N3CCN(S(=O)(=O)c4ccccc4)CC3)C2=O)cc1OC (centres undefined) | . | 5% | -1% | . | . | -4% | -6% | .
O=C(CSc1ccccc1Cl)N1CCC(c2nc3ccccc3s2)CC1 | ? | 11% | -9% | -9.0% | -15% | 4% | 35µM* | 2%
COc1ccc(/C=C(\C#N)c2n[nH]c(Cn3cncn3)n2)cc1 | . | -1% | 2% | . | ? | 7% | -7% | -13%
CCc1noc(C)c1C(=O)N(C)CC(=O)Nc1ccc(OC)cc1 | . | 1% | . | . | 14% | . | -4% | 5%
Cc1ccc2nc(N3C(=O)C(O)=C(C(=O)c4ccco4)C3c3ccc(C)o3)sc2c1 (centres undefined) | . | -3% | -17% | . | -29%[46.1 µM] | 21% | 13% | 3%
Cc1[nH]n(-c2ccccc2)c(=O)c1C=Nc1cccc2cccnc12 | 27% | -4% | . | -0.4% | 8.9µM* | -1% | -23% | ?
CCOc1cccc(C(=O)NC(=S)NCc2cccnc2)c1 | -3% | -17% | 21% | -0.7% | 0% | 10% | -3% | ?
Cn1c(SCc2ccccc2F)nnc1-c1cnccn1 | 9% | 10% | 0% | 3.5% | ? | -10% | 8% | -4%
CC(=O)Nc1cccc(Oc2cc(C#N)c(C#N)cc2N2CCOCC2)c1 | 5% | 3% | 1% | 0.9% | -16% | -2% | -25% | 5%
CCOc1ccc(NC(=O)c2ccc3[nH]c(C)cc(=O)c3c2)cc1 | -4% | . | . | -1.5% | -20%[46.1 µM] | . | 6% | -10%[46.1 µM]
CCOC(=O)N1CCN(Cc2nc3cc(NC(=O)CC)ccc3n2C)CC1 | . | 1% | 2% | . | ? | 0% | -7% | 5%
CCc1ccc(-c2cn3nc(CC)sc3n2)cc1 | 12% | . | . | 4.2% | ? | . | -15% | ?
O=C(COC(=O)c1cccc(Oc2ccccc2)c1)NCc1ccco1 | 0% | -5% | -2% | -4.6% | 13% | -58% | -8% | 5%
Cc1ccc(Nc2nnc(SCC(=O)Nc3ncc(C(F)(F)F)cc3Cl)s2)cc1 | -4% | . | 17% | -3.8% | ? | 1% | 5% | 12%
CN(CC(=O)NCc1ccc(F)cc1)S(=O)(=O)c1ccc2c(c1)n(C)c(=O)c(=O)n2C | . | 2% | 3% | . | . | 3% | 2% | .
CC(C)[C@H](NC(=O)[C@@H]1CSC2c3ccccc3C(=O)N21)C(=O)NC1CCCCC1 (some centres undefined) | . | 1% | -3% | . | . | 1% | -22% | .
O=C(CCC(=O)c1cccs1)NCc1cccnc1 | . | 0% | -1% | . | 6%[46.1 µM] | . | 2% | 3%
Cc1ccc(NC(=O)CSc2nnc(Cc3ccccc3)o2)cc1 | . | 13% | 2% | . | 2%[46.1 µM] | . | 3% | 13%
Cc1ccc(Cl)cc1NC(=O)CON=C(N)c1ccccc1 | . | 2% | -3% | . | ? | . | -19% | -12%
Cc1cccc(C)c1NC(=O)Cn1nnnc1N | . | 8% | 3% | . | 1%[46.1 µM] | . | 5% | -18%[46.1 µM]
Cc1cccc(OCC(=O)Nc2cccc(C(=O)NCC(C)C)c2)c1 | -4% | 0% | 2% | -2.9% | -1% | -7% | ? | -26%
N=c1c(C(=O)NCc2ccc(F)cc2)cc2c(=O)n3ccccc3nc2n1Cc1ccco1 | -14% | 28% | -21% | -7.0% | ? | -6% | ? | 1%
Cc1cccc2c(N=Nc3ccc(S(=O)(=O)Nc4cccc(Cl)c4)cc3[N+](=O)[O-])c(O)[nH]c12 | . | -4% | -2% | . | . | 2% | 37%[activator] | .
CCC1S/C(=N/N=C/c2ccco2)N(c2ccc(F)cc2)C1=O (centres undefined) | 2% | -29% | 3% | -4.0% | 9% | 10% | -15% | -2%
Cc1nn(C)cc1S(=O)(=O)N1CCN(c2ccccc2)CC1 | . | 10% | 1% | . | ? | ? | 12% | 1%[46.1 µM]
CCN(CCNC(=O)C1CCCN(Cc2nc(-c3ccc(OC)cc3)oc2C)C1)c1ccccc1 (centres undefined) | 10% | -5% | 4% | 5.2% | ? | -15% | ? | -21%
O=C(NCc1cccs1)c1ccc([N+](=O)[O-])cc1Cl | -4% | -26% | -3% | 3.8% | 23% | 3% | 19% | 29%
Cc1sc2nc(CN3CCN(S(=O)(=O)c4cccc5nonc45)CC3)[nH]c(=O)c2c1C | 19% | 1% | 2% | -0.3% | -22% | 4% | -13% | ?
CC(C)c1ccc2oc(=O)cc(CN3CCN(c4ccc(F)cc4)CC3)c2c1 | -6% | 20% | ? | -1.4% | ? | -69% | ? | -30%
Cc1ccc(C(=O)N/N=C\c2ccc([N+](=O)[O-])s2)cn1 | 4% | -1% | -2% | -5.5% | 14% | -5% | ? | ?
Cc1ccc(-c2c(CN3CCN(c4cc(C)ccc4C)CC3)csc2C)cc1 | ? | . | . | -0.5% | . | . | 0% | 13%[46.1 µM]
O=C(CCCn1c(SCC(=O)NCC2CCCO2)nc2ccccc2c1=O)NCC1CCCO1 (centres undefined) | 5% | 0% | 4% | 1.4% | 17% | 0% | 6% | 3%

A second format for 11 compounds above:
structure,Cruzain inh noDet,RE007 growth inh,SARS PLpro yeast,Cruzain Triton,MARV entry inh,NS1 inh,2A StopGo,LASV entry inh
Cc1ccc(Cl)cc1NC(=O)CON=C(N)c1ccccc1,.,2%,-3%,.,?,.,-19%,-12%
Cc1cccc(C)c1NC(=O)Cn1nnnc1N,.,8%,3%,.,1%[46.1 µM],.,5%,-18%[46.1 µM]
Cc1cccc(OCC(=O)Nc2cccc(C(=O)NCC(C)C)c2)c1,-4%,0%,2%,-2.9%,-1%,-7%,?,-26%
N=c1c(C(=O)NCc2ccc(F)cc2)cc2c(=O)n3ccccc3nc2n1Cc1ccco1,-14%,28%,-21%,-7.0%,?,-6%,?,1%
Cc1cccc2c(N=Nc3ccc(S(=O)(=O)Nc4cccc(Cl)c4)cc3[N+](=O)[O-])c(O)[nH]c12,.,-4%,-2%,.,.,2%,37%[activator],.
CCC1S/C(=N/N=C/c2ccco2)N(c2ccc(F)cc2)C1=O (centres undefined),2%,-29%,3%,-4.0%,9%,10%,-15%,-2%
Cc1nn(C)cc1S(=O)(=O)N1CCN(c2ccccc2)CC1,.,10%,1%,.,?,?,12%,1%[46.1 µM]
CCN(CCNC(=O)C1CCCN(Cc2nc(-c3ccc(OC)cc3)oc2C)C1)c1ccccc1 (centres undefined),10%,-5%,4%,5.2%,?,-15%,?,-21%
O=C(NCc1cccs1)c1ccc([N+](=O)[O-])cc1Cl,-4%,-26%,-3%,3.8%,23%,3%,19%,29%
Cc1sc2nc(CN3CCN(S(=O)(=O)c4cccc5nonc45)CC3)[nH]c(=O)c2c1C,19%,1%,2%,-0.3%,-22%,4%,-13%,?
CC(C)c1ccc2oc(=O)cc(CN3CCN(c4ccc(F)cc4)CC3)c2c1,-6%,20%,?,-1.4%,?,-69%,?,-30%
